Screening data as filed in PubChem BioAssay.
miR-21 reporter: miR-21 reporter, rising signal; HeLa miR-21 FLuc reporter, luciferase, 48 h; Potency, µM (titrated, usually from 38.3 µM), for inactives: at the top dose reporter change, positive = more light; 340,000 tested, under 10 active; AID 2288; active = well fitted rising curve with a large enough effect; inconclusive = small, poorly fitted or top-dose-only effect; inactive = no such curve, though single readings can be large or run the other way;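 note: % of control where 0% means no effect; miR-21 action dims this reporter so a rising signal means less miR-21 action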
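HeLa cells endogenously expressing miR-21, stably carrying CMV-driven firefly luciferase with a downstream miR-21 binding site, 2000 cells/well. Titrations up to approximately 40 uM, 48 hours; luciferase luminescence read.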
Rango-impB inh: inhibitors of Rango-importin beta complex formation. AID 540263. Rango CFP/YFP FRET sensor + importin beta, 45 min. Potency, µM (highest dose often 92.2 µM), for the others: at the highest dose inhibition of complex formation. 340,000 compounds, 0.031% hits. Q14974; active = rising FRET ratio curve, often small or poorly fitted; inconclusive = mostly compound fluorescence or quenching in the first reads; inactive = flat curves in all reads;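 note: potency is the fitted concentration of half-maximal effect; 0% = DMSO wells and 100% = buffer wells lacking importin beta; nearly all actives have a fitted effect of over 15% in size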
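FRET biosensor Rango (snurportin 1 IBB between N-terminal EYFP and C-terminal Cerulean), 50 nM in PBS/1 mM DTT/0.02% Tween-20/0.1% BSA, preincubated 5 min RT with compound; 0.125 microM importin beta added, 45 min RT, CFP/YFP FRET ratio read.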
Rango dissoc inh: inhibitors of RanGTP-induced Rango-importin beta complex dissociation. 340,000 compounds, 0.071% hits. Biochemical FRET Rango-importin beta, RanGTP-induced dissociation. O95149+P62826. Potency, µM (doses to about 46.1 µM), without a hit: at the top dose activity change, negative = inhibition. AID 540253; active means falling FRET ratio curve, often poorly fitted, with flat reads before Ran was added; inconclusive means other falling curves, or compound fluorescence or quenching; inactive means flat or rising ratio curve;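 note: potency is the fitted concentration of half-maximal effect; % of control where 0% means no effect; nearly all actives have a fitted effect of over 45% in size; -100% = wells without RanGTP and RCC1; the record marks most hits as doubtful in a second field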
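Compounds sat 5 min at room temperature with 0.1 uM Rango biosensor plus 0.25 uM importin beta, then FRET pre-read. RanGTP-RCC1 (0.6 uM Ran, 2mM GTP, 0.2 uM RCC1) added for 45 min, and the CFP/YFP post-read measured blocked complex dissociation.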
GLA inh pH 4.5: blocks human alpha-galactosidase A at pH 4.5 | AID 1467 | purified enzyme, 4-MU-alpha-Gal fluorescence, pH 4.5 | P06280 | activity change, negative = inhibition, % at 105 µM | 230,000 tested, under 10 active; inconclusive = small, poorly fitted or top-dose-only inhibition, or a rising curve; inactive = flat fitted curve, though single readings scatter; no compound was filed as active;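 note: 0% = full activity with enzyme and -100% = basal without enzyme; dose as in the result columns while the protocol names 77 µM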
Target sequence (P06280 whole entry, looked up): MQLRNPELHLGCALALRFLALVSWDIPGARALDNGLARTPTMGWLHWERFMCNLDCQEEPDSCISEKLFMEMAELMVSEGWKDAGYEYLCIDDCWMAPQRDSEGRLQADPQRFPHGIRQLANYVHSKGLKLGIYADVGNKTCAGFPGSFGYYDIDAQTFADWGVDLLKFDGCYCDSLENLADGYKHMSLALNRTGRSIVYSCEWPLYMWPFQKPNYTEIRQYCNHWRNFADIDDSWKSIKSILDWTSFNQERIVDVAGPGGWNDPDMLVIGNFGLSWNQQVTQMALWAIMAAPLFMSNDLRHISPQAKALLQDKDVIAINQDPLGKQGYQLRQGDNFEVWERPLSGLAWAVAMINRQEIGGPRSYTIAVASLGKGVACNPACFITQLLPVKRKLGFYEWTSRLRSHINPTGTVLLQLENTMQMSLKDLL
Numbers without * were called inactive; ? = inconclusive; nt = not tested or not shown; & = joins results of further samples. Not all compounds are listed, so the mix of outcomes need not match the whole.

SMILES | miR-21 reporter | Rango-impB inh | Rango dissoc inh | GLA inh pH 4.5
O=C(NCc1ccccc1)c1nc(-c2cccs2)no1 | -35% | -5.0% | 11% | -1
O=C(Cc1cc(=O)[nH]c(=O)[nH]1)N1CCC(Cc2ccccc2)CC1 | -4% | -3.7% | 3% | -3
CC1=C(C(=O)NC(C)c2ccccc2)C2(CCC(C)CC2)OC1=O (stereo not given) | -5% | 4.0% | 2% | 0
CCCCNC(=O)Oc1cc(CCl)on1 | 8% | nt | nt | 0
Cc1nnc(N2C(=O)C(O)=C(C(=O)c3ccco3)C2c2cccc([N+](=O)[O-])c2)s1 (stereo not given) | -5% | 3.9% | 0% | nt
CCN(CC(=O)NCc1cccs1)C(=O)C(c1ccccc1)c1ccccc1 | 5% | -1.0% | -5% | nt
COc1cc([N+](=O)[O-])ccc1NC(=O)N1CCCCCC1 | 8% | 1.5% | 0% | nt
O=C(O)c1ccc(Sc2ccccn2)c([N+](=O)[O-])c1 | -2% | 0.1% | -18% | 0
O=C(NCc1cccs1)C1CCCN1C(=O)Nc1ccc(Cl)cc1 (stereo not given) | -1% | nt | nt | 2
O=C(NC12CC3CC(CC(C3)C1)C2)N1CCN(C(=O)C2CCCO2)CC1 (stereo not given) | -25% | 2.5% | -8% | -13
COc1cc2c3nnc(-c4ccc(F)cc4)c-3cn(Cc3ccc(C)cc3)c2cc1OC | 0% | ? | ? | -7
CCCc1nc2c(C)cc(-c3nc4ccccc4n3C)cc2n1Cc1ccc(-c2ccccc2C(=O)O)cc1 | 1% | 0.9% | 20% | -3&-7
O=C(NC1CCCC1)c1ccc2c(c1)N(Cc1ccc(F)cc1)CCS2 | -2% | 1.2% | -13% | nt
Cc1ccc(S(=O)(=O)N/N=C2\C(=O)C3(C)CCC2C3(C)C)cc1 (stereo not given) | 3% | 1.9% | 2% | 9
COc1nc(Nc2cccc(C(F)(F)F)c2)nc(OC)n1 | -61% | 1.0% | 0% | -8
Nc1nc(Nc2cccc3ccccc23)nc(C2CCCC2=O)n1 (stereo not given) | -4% | nt | nt | 4
CCOC(=O)Cc1nnc(Nc2cc(C)ccc2C)c2ccccc12 | -4% | -0.2% | 20% | 3
COc1ccc2nc(-c3ccccc3)[nH]c2c1 | -15% | 0.5% | 9% | 2
CN/S(=N/S(=O)(=O)c1ccccc1)c1ccc(C)cc1 (stereo not given) | 0% | -0.9% | -8% | -2
O=C(CSc1cccc2cccnc12)N/N=C/c1ccc(F)cc1 | -10% | 1.8% | 8% | -6
Cc1ccc(C(=O)Nc2cccc(C(=O)NCc3ccco3)c2)cc1 | -2% | -3.8% | 4% | -17
Cc1nnc(N(CCC#N)CCC#N)s1 | -5% | -1.5% | ? | 8
CCC(C)C(N)C1=NC(C(=O)N[C@@H](CC(C)C)C(=O)N[C@H](CCC(=O)O)C(=O)N[C@H](C(=O)N[C@H]2CCCCNC(=O)[C@H](CC(N)=O)NC(=O)[C@@H](CC(=O)O)NC(=O)[C@H](Cc3cnc[nH]3)NC(=O)[C@@H](Cc3ccccc3)NC(=O)[C@H]([C@@H](C)CC)NC(=O)[C@@H](CCCN)NC2=O)[C@@H](C)CC)CS1 (stereo not given in full) | nt | ? | -10% | nt
CC(C)(C)N(Cc1ccccc1)C(=O)c1ccc(Cl)cc1[N+](=O)[O-] | 9% | 1.8% | -20% | -9
Cc1ccc(Cl)cc1Nc1nc(-c2cccnc2)cs1 | -16% | 0.1% | -16% | nt

The list continues:
SMILES | miR-21 reporter | Rango-impB inh | Rango dissoc inh | GLA inh pH 4.5
O=C(c1cc2cc(Cl)ccc2[nH]1)N1CCN(c2ccc(F)cc2)CC1 | -3% | 5.4% | 0% | nt
COc1ccc(C(=O)c2ccc(Br)cc2)c(OC)c1OC | nt | 1.7% | 1% | nt
CC(=O)NC(C(=O)c1ccccc1)C(=O)c1ccccc1 | -5% | 0.2% | 0% | nt
COc1cc2c(cc1NC(=O)c1cccc([N+](=O)[O-])c1)oc1ccccc12 | 6% | -6.3% | -1% | 9
Cc1cccc(-c2noc(CCC(=O)NC3CCCCC3)n2)c1 | -7% | 0.2% | 2% | nt
O=C(c1ccc2nc(N3CCOCC3)sc2c1)N1CCN(c2ccc(Cl)cc2)CC1 | -1% | -0.6% | -6% | nt
O=C(COC(=O)c1ccc(S(=O)(=O)Nc2ccccc2)cc1)NCCN1C(=O)CSC1=O | 0% | ? | 2% | -1
Cc1ccc(N(C)S(=O)(=O)c2cccc(C(=O)NCC(c3cccs3)N3CCOCC3)c2)cc1 (stereo not given) | nt | 0.1% | -4% | nt
CC(C)CC(NC(=O)COc1ccccc1)C(=O)O (stereo not given) | 1% | -2.2% | 23% | 5
COc1ccc(CC(=O)OCC(=O)Nc2c(C)n(C)n(-c3ccccc3)c2=O)cc1OC | nt | -0.3% | -2% | nt
CCOc1cc(/C=N/NC(=O)c2ccncc2)ccc1OC(=O)c1ccc([N+](=O)[O-])cc1 | 4% | 2.5% | -10% | 3
COCCC(=O)N1CCC(Oc2ccc(C(=O)NC3Cc4ccccc4C3)cc2)CC1 | 4% | 2.3% | 14% | nt
COC(=O)C1=CN(c2ccc(OC)cc2)C=C(C(=O)OC)C1c1ccc(C)c([N+](=O)[O-])c1 | -1% | -4.6% | 4% | -3
Cc1cc2c(cc1S(=O)(=O)N1CCc3ccccc31)NC(=O)CO2 | 21% | 2.3% | -2% | 3
CCOc1ccc(-c2nn(-c3ccccc3)cc2/C=C(\C#N)S(=O)(=O)c2ccccc2)cc1C | -10% | -3.7% | -15% | 9
CCCCNC(=O)NNC(=O)COc1cc(C)cc(C)c1 | 2% | -0.2% | 5% | -12
Cc1ccc(C)c(N(CC(=O)NC2CCCCC2)C(=O)c2csnn2)c1 | -6% | -2.9% | -1% | nt
N/C(Cc1ccc([N+](=O)[O-])cc1)=N\OC(=O)Cc1ccc(Cl)cc1 | -8% | 2.4% | 12% | 4
CC(=O)N1CCN(C(=O)COc2ccc(Br)cc2)CC1 | -4% | -0.4% | -6% | -5
CS(=O)(=O)NCCSc1nnnn1-c1ccccc1 | -1% | 5.8% | -1% | 2
CCC(C)NCCCOc1c(C)cc(C)cc1Br (stereo not given) | -5% | 4.6% | -1% | -3
CCOc1ccccc1C(=O)NCC(=O)NCC(C)(C)N1CCOCC1 | nt | -0.7% | 8% | nt
COc1ccc(NC(=O)CN2CCN(CC(=O)Nc3ccc(F)cc3)CC2)c(OC)c1 | 8% | 0.3% | 1% | nt
CCc1csc(CCNC(=O)C2CCC(=O)N(CCOC)C2)n1 (stereo not given) | 0% | 0.5% | 0% | nt
CC1CCC(NC(=O)C(=O)Nc2ccc3c(c2)OCO3)CC1 (stereo not given) | -57% | -0.6% | 2% | nt

Of the compounds above, these contain a furan ring, fused or not.
SMILES | miR-21 reporter | Rango-impB inh | Rango dissoc inh | GLA inh pH 4.5
Cc1nnc(N2C(=O)C(O)=C(C(=O)c3ccco3)C2c2cccc([N+](=O)[O-])c2)s1 (stereo not given) | -5% | 3.9% | 0% | nt
Cc1ccc(C(=O)Nc2cccc(C(=O)NCc3ccco3)c2)cc1 | -2% | -3.8% | 4% | -17
COc1cc2c(cc1NC(=O)c1cccc([N+](=O)[O-])c1)oc1ccccc12 | 6% | -6.3% | -1% | 9

2 of the compounds above, with values under each structure.
The line under a structure holds: miR-21 reporter	Rango-impB inh	Rango dissoc inh	GLA inh pH 4.5
> COc1ccc(NC(=O)CN2CCN(CC(=O)Nc3ccc(F)cc3)CC2)c(OC)c1
    8%	0.3%	1%	nt
> CCc1csc(CCNC(=O)C2CCC(=O)N(CCOC)C2)n1 (stereo not given)
    0%	0.5%	0%	nt

Next section.
SMILES | miR-21 reporter | Rango-impB inh | Rango dissoc inh | GLA inh pH 4.5
CC(=O)C1=C(O)C(=O)N(CCc2c[nH]c3ccccc23)C1c1ccc(O)cc1 (stereo not given) | -4% | 0.2% | 1% | -6
CCOC(=O)[C@H]1[C@H]2COc3ccc(Br)cc3[C@@H]2N2C(=O)CN(Cc3ccc(OC)cc3)C(=O)[C@@]12C | nt | -4.2% | 0% | nt
CCOc1ccccc1OCCCC(=O)Nc1cc(S(=O)(=O)N2CCOCC2)ccc1OC | nt | -3.5% | -10% | nt
O=C(CCC(=O)N1CCN(c2ccccn2)CC1)c1ccc(Cl)s1 | nt | -0.3% | -8% | nt
Cc1ccccc1Nc1nc(N)c2ccccc2n1 | -2% | 1.3% | 9% | -6
Cc1ccccc1-c1noc(CNC(=O)c2ccco2)n1 | -12% | 2.1% | 26% | nt
O=C(NCCNc1ccc([N+](=O)[O-])cc1C(F)(F)F)c1ccc(F)cc1 | 16% | 7.5% | 1% | -19
CCOc1ccc(C(=O)Nc2ccccc2OC(F)F)cc1 | -33% | 0.4% | 10% | -5
COc1ccc(S(=O)(=O)N2CCSC2)cc1C | -13% | 4.8% | 1% | -3
COc1ccccc1OCCC(=O)OCC(=O)NC(C)c1ccccc1 (stereo not given) | -1% | -1.6% | -5% | 6
O=C(Nc1cc(Br)ccc1O)c1cc(-c2ccccc2)on1 | -31% | 6.7% | 0% | nt
CN(CCc1cnn(C)c1)Cc1nc(Cc2ccccc2)no1 | -2% | ? | 10% | 3
Oc1c(N=Nc2ccc(F)cc2)ccc2ccccc12 | -59% | 1.8% | 2% | nt
CCCN(S(=O)(=O)c1ccc(OCC)cc1)S(=O)(=O)c1cccs1 | -11% | -0.2% | 5% | -12
Cc1sc2ncnc(N=Nc3c(O)[nH]c4ccccc34)c2c1C | -17% | -3.8% | 11% | 1
CCOC(=O)c1ccc(NC(=O)CC2SC3=NCCN3C2=O)cc1 (stereo not given) | -2% | 1.9% | -4% | 7
O=C(CSc1nc2ccccc2[nH]1)NCCN1CCCCC1 | -5% | -9.7% | -19% | 6
S=c1[nH]nc(-c2cc(-c3ccco3)[nH]n2)n1-c1ccccc1 | -11% | 0.4% | -15% | -3
Cc1ccc[n+](CC2OCc3ccccc3CO2)c1 | 1% | 0.6% | -6% | 0
CCOC(=O)Cn1cnc2c(cnn2-c2ccc(Cl)cc2)c1=O | -33% | -0.8% | 1% | 0
CCn1nc(C(=O)OCC(=O)c2c[nH]c3ccccc23)c2ccccc2c1=O | -7% | -1.3% | -9% | -15
Cc1ccc2c(COC(=O)c3cnc(C)cn3)cc(=O)oc2c1 | -6% | nt | nt | -1
O=C(NCCc1ccc(F)cc1)c1ccc(S(=O)(=O)N2CCCCC2)cc1 | nt | 2.1% | -7% | nt
Nc1cc(=O)[nH]c(SCCNS(=O)(=O)c2ccccc2)n1 | -1% | 3.4% | 7% | 4
CCC(=O)OCCNc1cc(SCCC(=O)OC)c2nonc2c1[N+](=O)[O-] | -5% | -2.9% | -15% | -12

Next section
SMILES | miR-21 reporter | Rango-impB inh | Rango dissoc inh | GLA inh pH 4.5
O=C(CSc1cc(Cl)ccc1Cl)NCC(=O)Nc1ccc(F)c(F)c1F | 0% | 3.9% | 1% | -9
S=C(NNc1ccc2ccccc2c1)NC1CCCCC1 | -51% | -0.1% | 4% | 3
Cc1cc(NC(=O)c2cc([N+](=O)[O-])cc([N+](=O)[O-])c2C)no1 | 4% | -3.3% | 10% | 5
CCC(C(=O)Nc1ccccc1C(=O)N1CCOCC1)N1C(=O)c2ccccc2C1=O (stereo not given) | 0% | -1.7% | -1% | 8
Cn1cnnc1SCc1ccccc1[N+](=O)[O-] | 1% | 2.2% | -5% | 3
CC(=O)N=c1sc2ccccc2n1C | -18% | -0.5% | 29% | -6
CCOc1ccc(-c2nn(-c3ccccc3)cc2/C=C2\SC(N)=NC2=O)cc1C | -11% | 6.6% | 12% | 3
Cc1ccccc1CS(=O)(=O)CCC(=O)N1CCN(c2ccc(N3CCOCC3)nn2)CC1 | -8% | -0.1% | -14% | 8
O=C(c1ccc(N2CCCC2)c([N+](=O)[O-])c1)N1CCN(S(=O)(=O)c2ccc(Cl)cc2)CC1 | nt | -2.1% | 0% | nt
O=C(Cn1cc([N+](=O)[O-])ccc1=O)N1CCCc2ccccc21 | nt | 0.7% | -16% | nt
O=C(c1ccco1)N1N=C2CCCCCC2C1(O)C(F)(F)F (stereo not given) | 19% | -3.0% | -6% | 0
